Compound activity as filed in PubChem.
TRPML1 agonist – human mucolipin-1 channel agonism. TRPML1-expressing cells, Ca2+ dye fluorescence, FDSS; host cell line not named in the record; reference of the full effect not given here. AID 624414. activation, % (no concentration beside the values). 0.12% of 410,000 active. Q9GZU1; in the data active = activation above about 50%; inconclusive = about 30% to 50%; inactive = below about 30%; note: 0% is about no effect; the text of the record puts the active cut at 80%
Target sequence (Q9GZU1 whole entry, looked up): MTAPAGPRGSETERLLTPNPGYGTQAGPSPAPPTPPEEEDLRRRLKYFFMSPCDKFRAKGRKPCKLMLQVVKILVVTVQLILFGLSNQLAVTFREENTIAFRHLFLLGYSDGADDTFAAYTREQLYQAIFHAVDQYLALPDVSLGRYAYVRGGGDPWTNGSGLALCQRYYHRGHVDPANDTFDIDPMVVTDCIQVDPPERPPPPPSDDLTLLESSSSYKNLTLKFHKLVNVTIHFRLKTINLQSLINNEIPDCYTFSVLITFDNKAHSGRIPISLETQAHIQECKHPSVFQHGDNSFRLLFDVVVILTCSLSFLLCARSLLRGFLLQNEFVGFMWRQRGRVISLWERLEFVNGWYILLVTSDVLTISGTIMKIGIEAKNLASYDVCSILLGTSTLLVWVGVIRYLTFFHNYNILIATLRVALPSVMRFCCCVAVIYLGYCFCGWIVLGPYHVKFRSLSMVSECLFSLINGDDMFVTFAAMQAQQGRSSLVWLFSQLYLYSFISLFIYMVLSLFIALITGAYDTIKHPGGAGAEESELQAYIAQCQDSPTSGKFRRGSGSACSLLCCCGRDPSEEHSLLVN
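Tet-induced TRPML1-DL cells, 1,500 per well, cultured overnight, were loaded with a no-wash Ca2+ dye for 45–90 min. Calcium fluorescence was recorded on the FDSS for 110 s after compound addition, before the EC80 agonist (4 uM 54-4) was added.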
TRPML1 inh – blocks the human TRPML1 channel; Q9GZU1; TRPML1-inducible cells, Ca2+ dye fluorescence, FDSS; hits give low values; inhibition of EC80 agonist-evoked calcium signal; activity change, negative = inhibition, % (test concentration not listed); 0.02% of 390,000 active; in the data active means activity change below about -50%; inconclusive means about -30% to -50%; inactive means above about -30%;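 note: stimulus is agonist 54-4 at its EC80 concentration; % is set by controls: 0 for no effect and ±100 for the full control effect; compound concentration not given in the record; the text of the record puts the active cut at -80%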
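TRPML1-DL cells, Tet-induced overnight (~16 h, 37 °C) at 1,500 cells/well, were loaded with Ca8 no-wash dye plus quencher for 45-90 min at room temperature. Compounds were pinned during FDSS kinetic reading; agonist 54-4 at EC80 (4 uM final) then added.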
D2 agonist – human D2 receptor agonism in beta-arrestin assay | P14416 | 0.084% of 360,000 active | activation, % (no concentration beside the values) | DiscoveRx PathHunter D2 beta-arrestin, luminescence, 90 min; 100% = 57 uM dopamine signal; in the data active = activation above about 40%; inconclusive = about 15% to 40%; inactive = below about 15%; note: compound concentration not given in the record; the text of the record calls up to 30% inactive
Target sequence (P14416 whole entry, looked up): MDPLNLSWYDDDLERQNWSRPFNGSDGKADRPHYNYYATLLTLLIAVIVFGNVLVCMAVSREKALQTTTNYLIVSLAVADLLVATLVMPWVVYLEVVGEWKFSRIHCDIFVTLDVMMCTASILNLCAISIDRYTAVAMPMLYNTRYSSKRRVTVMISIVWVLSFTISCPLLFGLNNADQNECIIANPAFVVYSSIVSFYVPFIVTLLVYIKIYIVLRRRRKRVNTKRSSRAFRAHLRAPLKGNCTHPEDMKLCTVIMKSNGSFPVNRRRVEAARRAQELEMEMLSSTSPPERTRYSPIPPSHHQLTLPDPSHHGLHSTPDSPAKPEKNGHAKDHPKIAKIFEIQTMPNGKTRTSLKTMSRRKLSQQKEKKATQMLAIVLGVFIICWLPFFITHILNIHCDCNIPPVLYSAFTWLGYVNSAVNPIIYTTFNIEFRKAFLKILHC
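DiscoveRx PathHunter D2 beta-arrestin cells (2,100/well) attached overnight, then compound-stimulated 90 min at 37 C in HBSS/10 mM HEPES/0.1% Tween-20 buffer; beta-galactosidase complementation read by luminescence after 1 h at ambient temperature. Dopamine 57 uM final (EC100) as control.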
Six1-Eya2 blk – inhibitors of human Six1/Eya2 interaction. activity change, % (concentration not given with the values). AlphaScreen GST-Six1/His-Eya2 binding, biochemical; hits give low values; control for the full effect not named in the record. 0.56% of 360,000 active. Q15475+O00167; in the data active = activity change below about -65%; inconclusive = about -30% to -65%; inactive = above about -30%; note: % is set by controls: 0 for no effect and ±100 for the full control effect
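GST-Six1 + His-Eya2 (5X stock: 250/500 nM); Tris pH 8.0, 300 mM NaCl, 0.05% BSA, 0.02% Tween 20; GSH donor/Ni acceptor beads; 1 h 37 °C dark; AlphaScreen readout.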
D2 PAM – human D2 receptor positive allosteric modulation | P14416 | DiscoveRx D2 beta-arrestin cells, luminescence, 90 min; 100% = 57 uM dopamine signal | potentiation, % (test concentration not listed) | 0.23% of 360,000 active; active = potentiation of 50% or more; inconclusive = 30% to 50%; inactive = 30% or less;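 note: compound concentration not given in the record; tested on top of an EC20 dose of dopamine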
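D2 cells co-treated with compound plus 50 nM dopamine (EC20) for 90 min at 37 deg C to detect potentiation. Beta-arrestin recruitment was read as enzyme-fragment luminescence after 1 h at ambient temperature. Full response was set by 57 uM dopamine.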
PINK1 expr mod – modulators of PINK1 expression | PINK1 immunofluorescence, high-content cytometry, 24 h | Potency, µM (doses to about 76.6 µM), for the others: top-dose activation (PINK1 increase), usual class: activators | 0.2% of 410,000 active | AID 624263; active = well fitted activation curve with a large enough effect; inconclusive = small, poorly fitted or top-dose-only effect; inactive = flat fitted curve, though single readings scatter; cell line not stated here;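 note: potency is the fitted concentration of half-maximal effect; % of control where 0% means no effect; nearly all actives have a fitted effect of over 65% in size; a mitochondrial uncoupler was the plate control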
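Decision-based qHTS: stable cells, 24 h exposure to five compound concentrations, CCCP as control. Fixed cells stained for PINK1 plus nuclear, mitochondrial and cell markers, cytometer read.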
An asterisk follows results filed as active; & = joins results of further samples; [ ] = dose if it differs, or a comment.

`Cc1ccc2onc(CC(=O)N3CCN(c4cccc(Cl)c4)CC3)c2c1` gave TRPML1 agonist 5.7, TRPML1 inh 45 and PINK1 expr mod -0.5%.
Cc1cccc(Oc2ccccc2NC(=O)CSCC(=O)Nc2cc(C)on2)c1 was read as TRPML1 agonist 1.0, TRPML1 inh -3, D2 agonist -1.0, Six1-Eya2 blk 0, D2 PAM 24 and PINK1 expr mod -1.1%.
Screening C#CNC(=O)C1(CC=C)CCNCC1 returned TRPML1 agonist -0.9, TRPML1 inh 17, D2 agonist -1.4, Six1-Eya2 blk 1, D2 PAM -11 and PINK1 expr mod -1.3%.
Screening CCN(CC)CCCNC(=O)c1cc2c(Cl)nc3ccccc3c2s1 returned TRPML1 agonist -0.4, TRPML1 inh 0, D2 agonist -2.1, Six1-Eya2 blk -14, D2 PAM -7 and PINK1 expr mod -2.3%.
Screening O=S(=O)(/N=C/c1c(O)ccc2ccccc12)c1ccccc1 returned TRPML1 agonist 0.4, TRPML1 inh 20, D2 agonist 3.5, Six1-Eya2 blk 0, D2 PAM 26 and PINK1 expr mod -1.8%.
O=C(CCCC(=O)N1CCN(c2ccc([N+](=O)[O-])cc2)CC1)c1ccccc1 was read as TRPML1 agonist 2.5, TRPML1 inh 5, D2 agonist 5.4, Six1-Eya2 blk -13, D2 PAM 4 and PINK1 expr mod 0.6%.
For CCCCn1c(=N)n(CCOc2ccccc2OC)c2ccccc21 the results were TRPML1 agonist 0.0, TRPML1 inh 2 and PINK1 expr mod -0.3%.
Screening COC(=O)c1ccccc1NC(=O)Cn1cnc([N+](=O)[O-])c1 returned TRPML1 agonist -0.3, TRPML1 inh -1, D2 agonist -5.7, Six1-Eya2 blk 1, D2 PAM 0 and PINK1 expr mod 2.6%.
Cc1ccc(/C=C/C(=O)OCC(=O)NCc2cccs2)o1 was read as TRPML1 agonist 0.7, TRPML1 inh 0, D2 agonist -8.2, Six1-Eya2 blk -3, D2 PAM -5 and PINK1 expr mod 7.0%.
`O=C(NC(=S)N1CCc2ccccc21)c1ccco1` gave TRPML1 agonist 0.1, TRPML1 inh 6, D2 agonist -2.3, Six1-Eya2 blk 7, D2 PAM -9 and PINK1 expr mod 2.1%.
For Clc1ccc(-c2nnc(COc3ncnc4sccc34)o2)cc1 the results were TRPML1 agonist -0.2, TRPML1 inh 11, D2 agonist -1.5, Six1-Eya2 blk 3, D2 PAM -6 and PINK1 expr mod -0.6%.
Fc1ccc(NCc2ccccc2-c2nnc(-c3ccccc3Cl)o2)cc1Cl was read as TRPML1 agonist 0.6, TRPML1 inh 25 and PINK1 expr mod 0.9%.
`Cc1cccc(C(=O)Nc2sc3c(c2C(=O)N2CCCCC2)CCC(C)C3)c1` (stereo not given) gave TRPML1 agonist -0.5, TRPML1 inh 29 and PINK1 expr mod 2.2%.
`Cc1ccc(C(=O)NCC(=O)N2CCN(c3ccccc3O)CC2)s1` gave TRPML1 agonist -0.4, TRPML1 inh 24, D2 agonist -0.9, Six1-Eya2 blk -3, D2 PAM -13 and PINK1 expr mod 0.6%.
For CC(C)(C)NC(=O)CN(C(=O)CSc1nnc(COc2ccccc2)o1)c1cccc(F)c1 the results were TRPML1 agonist 0.5, TRPML1 inh -2, D2 agonist -1.7, Six1-Eya2 blk 0 and D2 PAM 10.
Cc1ccccc1N(C)S(=O)(=O)c1nnc(NC(=O)c2ccccc2F)s1 was read as TRPML1 agonist -0.7&2.0, TRPML1 inh -1&16, D2 agonist 1.1, Six1-Eya2 blk -3, D2 PAM -22 and PINK1 expr mod -0.2%&-0.4%.
Cc1cc(C)c(S(=O)(=O)n2nc(C)c(Br)c2C)c(C)c1 was read as TRPML1 agonist 1.2, TRPML1 inh -10, D2 agonist -0.2, Six1-Eya2 blk 19, D2 PAM 4 and PINK1 expr mod 1.5%.
For COc1ccc(CNc2nc(-c3ccc(OC)cc3)cc(C(F)(F)F)n2)cc1 the results were TRPML1 agonist 3.0, TRPML1 inh 33 and PINK1 expr mod 7.0%.
For N#CC1(NC(=O)CN2c3cccc4cccc(c34)S2(=O)=O)CCCCC1 the results were TRPML1 agonist -0.2, TRPML1 inh 18, D2 agonist 3.9, Six1-Eya2 blk 5, D2 PAM 7 and PINK1 expr mod 0.2%.
Screening CCN(CC)CCN(C(=O)c1ccco1)c1nc2cc(C)cc(C)c2s1 returned TRPML1 agonist 0.7, TRPML1 inh 22 and PINK1 expr mod 10%.
COCCNC(=O)CSc1cc(-c2ccccc2)c2ccc(OC)cc2n1 was read as TRPML1 agonist -0.9, TRPML1 inh -8, D2 agonist -3.5, Six1-Eya2 blk -22, D2 PAM -27 and PINK1 expr mod 3.7%.
CN(C)c1ccc(C(=O)Nc2cc(C(F)(F)F)ccc2-n2cncn2)cc1 was read as TRPML1 agonist 4.9, TRPML1 inh 23, D2 agonist -2.6, Six1-Eya2 blk -1, D2 PAM -7 and PINK1 expr mod 0.6%.
`COC(=O)/C=C/c1ccc2c(c1)S(=O)(=O)N(Cc1ccc(OC)cc1)[C@H]2CC(=O)OC` gave TRPML1 agonist 0.2, TRPML1 inh 4, D2 agonist 1.2, Six1-Eya2 blk -4, D2 PAM -9 and PINK1 expr mod 0.0%.
`Cc1ccc(-n2c(=O)c3c4c(sc3n3c(=S)[nH]nc23)CCC4)cc1` gave TRPML1 agonist 1.1, TRPML1 inh 4, D2 agonist -2.9, Six1-Eya2 blk 5, D2 PAM -2 and PINK1 expr mod -1.4%.

Arranged by number of heavy atoms (low to high): some entries from above.
Cc1cc(C)c(S(=O)(=O)n2nc(C)c(Br)c2C)c(C)c1 was read as TRPML1 agonist 1.2, TRPML1 inh -10, D2 agonist -0.2, Six1-Eya2 blk 19, D2 PAM 4 and PINK1 expr mod 1.5%.
`Cc1ccc(-n2c(=O)c3c4c(sc3n3c(=S)[nH]nc23)CCC4)cc1` gave TRPML1 agonist 1.1, TRPML1 inh 4, D2 agonist -2.9, Six1-Eya2 blk 5, D2 PAM -2 and PINK1 expr mod -1.4%.
`Cc1ccc(C(=O)NCC(=O)N2CCN(c3ccccc3O)CC2)s1` gave TRPML1 agonist -0.4, TRPML1 inh 24, D2 agonist -0.9, Six1-Eya2 blk -3, D2 PAM -13 and PINK1 expr mod 0.6%.

Additional records
For O=C(Nc1cccc(S(=O)(=O)N2CCCCC2)c1)c1cc2ccccc2o1 the results were TRPML1 agonist 1.6, TRPML1 inh 21, D2 agonist 5.4, Six1-Eya2 blk -20, D2 PAM -6 and PINK1 expr mod -0.1%.
For CCn1cc2nc(SCC(=O)Nc3cc(OC)ccc3OC)n(Cc3ccc(Cl)cc3)c(=O)c2n1 the results were TRPML1 agonist -0.3, TRPML1 inh 26 and PINK1 expr mod 0.8%.
For CCOC(=O)C1=CN(CC)S(=O)(=O)NC1c1cccc(OC)c1 (stereo not given) the results were TRPML1 agonist -0.1, TRPML1 inh -10, D2 agonist -1.1, Six1-Eya2 blk 8 and PINK1 expr mod 0.1%.
`CSc1cccc(-n2cc(-c3ccc4c(c3)OCO4)[nH]c2=O)c1` gave TRPML1 agonist 0.9, TRPML1 inh 4, D2 agonist -2.5, Six1-Eya2 blk -12, D2 PAM -17 and PINK1 expr mod 9.8%.
Screening CCCCn1c(-c2ccc(F)c(F)c2)nc2cc3[nH]c(=O)c(C(C)C)nc3cc21 returned TRPML1 agonist 1.2, TRPML1 inh 8, D2 agonist -2.6, Six1-Eya2 blk -2, D2 PAM -11 and PINK1 expr mod 2.0%.
CCn1c2ccccc2c2cc(C3C(C#N)=C(N)Oc4n[nH]c(COC)c43)ccc21 (stereo not given) was read as TRPML1 agonist 0.7, TRPML1 inh -20, D2 agonist -1.8, Six1-Eya2 blk -2, D2 PAM -4 and PINK1 expr mod -8.8%[38.3 µM].
CCCc1cc(=O)n2nc(N3CCC(C(=O)Nc4c(F)c(F)c(F)c(F)c4F)CC3)sc2n1 was read as TRPML1 agonist 0.3, TRPML1 inh -13, D2 agonist 2.6, Six1-Eya2 blk -2, D2 PAM -4 and PINK1 expr mod 5.6%.
For Oc1c(N=Nc2ccccc2)sc2ccccc12 the results were TRPML1 agonist 2.3, TRPML1 inh 28, D2 agonist -7.3, Six1-Eya2 blk inconclusive, D2 PAM -30 and PINK1 expr mod 7.1%.
Screening NS(=O)(=O)c1ccc(CNC(=O)c2cc(=O)c3cc(Cl)ccc3o2)cc1 returned TRPML1 agonist 1.6, TRPML1 inh -12, D2 agonist 1.0, Six1-Eya2 blk 3, D2 PAM 1 and PINK1 expr mod 4.9%.
For Cc1c(Cl)cccc1NC(=O)c1oc2ccc(S(=O)(=O)N3CCC4(CC3)OCCO4)cc2c1C the results were TRPML1 agonist 0.5, TRPML1 inh -17 and PINK1 expr mod 6.3%.
Screening O=C(NCCc1ccccc1)C1CCCN(S(=O)(=O)c2cccnc2)C1 (stereo not given) returned TRPML1 agonist -0.3, TRPML1 inh -7, D2 agonist -1.7, Six1-Eya2 blk 2, D2 PAM -25 and PINK1 expr mod 0.5%.
Screening COc1ccccc1Nc1ccc(C(=O)NCc2cccs2)cn1 returned TRPML1 agonist 0.5, TRPML1 inh 15, D2 agonist -2.0, Six1-Eya2 blk -15, D2 PAM -2 and PINK1 expr mod -1.5%.
For Cc1nc2ccccc2c(=O)n1CCc1ccc(O)cc1 the results were TRPML1 agonist 0.0, TRPML1 inh 0, D2 agonist -1.4, Six1-Eya2 blk -6, D2 PAM 0 and PINK1 expr mod 0.6%.
Screening COc1ccc(C2/C=C\CN(C(=O)Nc3ccc(C(F)(F)F)cc3)CC(=O)N2Cc2ccc(F)cc2)cc1 (stereo not given) returned TRPML1 agonist 0.7&1.8, TRPML1 inh 20&34, D2 agonist -2.6, Six1-Eya2 blk -4, D2 PAM -8 and PINK1 expr mod inconclusive.
Cc1cnc(C)c(Nc2nc(C(N)c3ccccc3)cs2)n1 (stereo not given) was read as TRPML1 agonist -0.8, D2 agonist -6.3, Six1-Eya2 blk inconclusive, D2 PAM -15 and PINK1 expr mod 1.7%.
Screening CC1CC(C)(C)NC(=S)N1CC(=O)NCc1ccc2c(c1)OCO2 (stereo not given) returned TRPML1 agonist -0.5, TRPML1 inh -1, D2 agonist 0.6, Six1-Eya2 blk -3, D2 PAM -7 and PINK1 expr mod -1.1%.
For COCCCn1c(SCC(=O)OC2CCCCC2)nnc1-c1ccco1 the results were TRPML1 agonist 0.0, TRPML1 inh -14, D2 agonist -2.9, Six1-Eya2 blk 3, D2 PAM -10 and PINK1 expr mod -1.8%[38.3 µM].
COc1cc2c(cc1OC)/C(=C/C(=O)c1ccc([N+](=O)[O-])c(C)c1)NCC2 was read as TRPML1 agonist 1.7, TRPML1 inh -11, D2 agonist -0.4, Six1-Eya2 blk 4, D2 PAM -12 and PINK1 expr mod 9.0%.
O=C(Nc1ccc(S(=O)(=O)N2CCN(Cc3ccccc3)CC2)cc1)c1cnccn1 was read as TRPML1 agonist -1.2, TRPML1 inh 7, D2 agonist 1.4, Six1-Eya2 blk 5, D2 PAM 1 and PINK1 expr mod 4.5%.
